Screening results (PubChem)
FGF22 binding: binders of recombinant human FGF22 by thermal shift. Q9HCT0. SYPRO orange fluorescence; percent of sucrose octasulfate shift, DMSO zero. calls only at 9.99 µM. 1.5% of 340,000 active. AID 651658;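 active means melting point raised past a set limit in the mean and every replicate; three in four hits are not shown here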
Target sequence (Q9HCT0 whole entry, looked up): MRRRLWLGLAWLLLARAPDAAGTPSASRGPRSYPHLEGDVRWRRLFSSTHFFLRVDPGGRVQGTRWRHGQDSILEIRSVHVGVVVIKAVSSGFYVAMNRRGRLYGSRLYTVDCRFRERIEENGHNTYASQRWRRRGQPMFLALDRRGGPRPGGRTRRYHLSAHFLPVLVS
rRNA inh HTS: inhibits bacterial ribosomal RNA function over humanized ribosomes; E. coli WT GFP vs humanized-ribosome RFP mutants, fluorescence, 24 h; active compounds read low; DMSO median 0, no signal -100; GFP signal change (wild-type ribosome), % (no concentration beside the values); 1.6% of 350,000 active; AID 720706;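 active means significant combined selectivity score with lowered wild-type GFP, culture density cut under 30%, mutant RFP and density less affected; inactive means any of these conditions unmet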; further: one replicate is shown; some compounds called inactive have numbers as strong as hits
MLL AF4-AF9 inh: inhibitors of human MLL-AF4/AF9 interaction | 0.47% of 350,000 active | AlphaScreen, biotin-AF4 peptide binding to FLAG-AF9 | inhibition, % at 10 µM;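 active means every replicate reaching a set inhibition limit, whatever the replicate mean, cut at about 25% in these data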;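 further: 0% = plate neutral control median and 100% = total signal loss; the record names both 10 and 1 µM as test concentration; the first replicate is given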
Target sequence (P42568 whole entry, looked up): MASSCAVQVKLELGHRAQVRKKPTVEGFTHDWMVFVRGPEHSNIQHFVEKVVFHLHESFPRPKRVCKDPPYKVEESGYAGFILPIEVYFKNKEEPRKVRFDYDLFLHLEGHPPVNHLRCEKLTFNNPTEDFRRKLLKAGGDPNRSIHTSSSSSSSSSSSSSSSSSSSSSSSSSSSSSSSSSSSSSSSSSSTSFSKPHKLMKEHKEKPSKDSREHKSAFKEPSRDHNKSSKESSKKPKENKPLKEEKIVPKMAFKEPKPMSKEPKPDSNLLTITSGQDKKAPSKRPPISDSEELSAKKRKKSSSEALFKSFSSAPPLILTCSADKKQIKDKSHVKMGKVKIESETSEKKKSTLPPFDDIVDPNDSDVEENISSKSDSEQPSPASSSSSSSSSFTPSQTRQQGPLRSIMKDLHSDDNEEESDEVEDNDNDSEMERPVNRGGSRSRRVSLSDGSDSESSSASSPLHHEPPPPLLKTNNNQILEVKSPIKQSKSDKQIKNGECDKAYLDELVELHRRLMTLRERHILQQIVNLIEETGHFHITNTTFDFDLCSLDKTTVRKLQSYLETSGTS
rRNA inh HTS OD600: further read-out of rRNA inh HTS, marked with its call; OD600 change, %; measured here: OD600 growth;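 optical density of the mix in the first replicate; 0 = DMSO median and -100 = no signal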
rRNA inh HTS RFP: second read-out of rRNA inh HTS, no call of its own (marks repeat the call); RFP signal change, %; measured here: RFP humanized mutant strains;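 first replicate; 0 = DMSO median and -100 = no signal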
The depositor's hits bear a star; i = inactive; / = not tested or not shown; & = joins results of further samples. Only part of the results is shown (hit frequency here may not be typical).

The opening 6 compounds, ahead of the listing:
FGF22 binding	rRNA inh HTS	rRNA inh HTS OD600	rRNA inh HTS RFP	MLL AF4-AF9 inh	Structure
i	-0.2	0.8	-1.5	0.5	CSc1ncnc2c1ncn2CCCNCc1cccc2ccccc12
i	2.8	9.0	-0.8	-1.6	COc1ccc(S(=O)(=O)N[C@H]2CC[C@H](CC(=O)NCCc3ccncc3)O[C@H]2CO)cc1
i	-7.7	-3.8	-0.1	-0.7	COc1cccc(S(=O)(=O)N[C@H]2CC[C@H](CCn3cc(-c4ccc(F)cc4)nn3)O[C@H]2CO)c1
i	6.2	3.1	9.4	0.8	COc1ccc(CNC(=O)C[C@H]2CC[C@@H]3[C@H](COc4ccc(NC(=O)C5CC5)cc4C(=O)N3C)O2)cc1
i	10.2	10.4	3.1	-0.4	CC1CCCCC1NC(=O)CSc1nnc(-c2ccco2)n1C (stereo not given)
i	4.8	18.9	-0.9	-1.3	C[C@H](CO)N1C[C@H](C)[C@@H](CN(C)Cc2ccc3c(c2)OCO3)Oc2ccc(NC(=O)CCCN(C)C)cc2C1=O

All compounds of this part, previewed entries included:
FGF22 binding	rRNA inh HTS	rRNA inh HTS OD600	rRNA inh HTS RFP	MLL AF4-AF9 inh	Structure
i	-0.2	0.8	-1.5	0.5	CSc1ncnc2c1ncn2CCCNCc1cccc2ccccc12
i	2.8	9.0	-0.8	-1.6	COc1ccc(S(=O)(=O)N[C@H]2CC[C@H](CC(=O)NCCc3ccncc3)O[C@H]2CO)cc1
i	-7.7	-3.8	-0.1	-0.7	COc1cccc(S(=O)(=O)N[C@H]2CC[C@H](CCn3cc(-c4ccc(F)cc4)nn3)O[C@H]2CO)c1
i	6.2	3.1	9.4	0.8	COc1ccc(CNC(=O)C[C@H]2CC[C@@H]3[C@H](COc4ccc(NC(=O)C5CC5)cc4C(=O)N3C)O2)cc1
i	10.2	10.4	3.1	-0.4	CC1CCCCC1NC(=O)CSc1nnc(-c2ccco2)n1C (stereo not given)
i	4.8	18.9	-0.9	-1.3	C[C@H](CO)N1C[C@H](C)[C@@H](CN(C)Cc2ccc3c(c2)OCO3)Oc2ccc(NC(=O)CCCN(C)C)cc2C1=O
i	-7.4&-1.7	-12.4&-5.5	-1.2&1.9	-3.0&-0.2	O=C(NCC[C@H]1CC[C@H](NS(=O)(=O)c2ccc(F)cc2)[C@@H](CO)O1)c1ccc2c(c1)OCO2
i	11.0	11.4	-3.5	-6.1	CO[C@H]1CC[C@H]2CCN(C)C(=O)[C@H](C)[C@@H](OC)CN(C)C(=O)c3cc(C#N)ccc3OC[C@H]1O2
i	4.6	-2.3	1.2	1.7	COc1ccc(CN(C)C[C@H]2OCCCC[C@@H](C)Oc3ccc(NC(=O)CCC(F)(F)F)cc3C(=O)N([C@H](C)CO)C[C@H]2C)cc1
i	1.4	9.8	-3.6	0.0	O=C(NCc1cccc(Cl)c1)C1Cc2c(-c3ccccc3)ccnc2O1 (stereo not given)
i	0.5	-1.4	1.1	1.5	CCOc1cc(N2CCOCC2)c(OCC)cc1NC(=O)CN1C(=O)NC2(CCCCC2C)C1=O (stereo not given)
i	2.7	5.2	-0.3	-0.2	O=C(Cc1ccccn1)NCC[C@H]1CC[C@H](NC(=O)CN2CCOCC2)[C@H](CO)O1
i	-4.8	-12.6	6.2	-4.5	C[C@H](CO)N1C[C@H](C)[C@@H](CN(C)S(C)(=O)=O)Oc2cc(C#Cc3ccccc3)ccc2S1(=O)=O
i	0.3	-1.5	3.6	16.4	CNC[C@@H]1Oc2cc(C#Cc3ccccc3OC)ccc2S(=O)(=O)N([C@@H](C)CO)C[C@H]1C
i	1.3	3.0	-2.4	-1.9	C[C@H](CO)N1C[C@H](C)[C@@H](CN(C)S(=O)(=O)c2cn(C)cn2)Oc2c(NC(=O)c3cnccn3)cccc2C1=O
i	-5.2	-3.2	-0.7	-2.6	C[C@H](CO)N1C[C@H](C)[C@H](CN(C)C(=O)C2CCC2)Oc2cc(C#CC(C)(C)O)ccc2S1(=O)=O
i	5.7	4.6	0.0	2.4	COC(=O)[C@]1(Cc2ccccc2)N[C@H](CN(C)C(C)=O)[C@@H]2C(=O)N(C)C(=O)[C@@H]21
i	1.8	1.6	-0.3	-2.9	C[C@@H]1CN([C@@H](C)CO)C(=O)c2cccc(NC(=O)c3ccncc3)c2O[C@@H]1CN(C)S(C)(=O)=O
i	0.3	4.8	-3.8	-0.4	C[C@@H]1CCCCO[C@@H](CN(C)S(=O)(=O)c2cn(C)cn2)[C@H](C)CN([C@@H](C)CO)C(=O)c2cc(NC(=O)CCC(F)(F)F)ccc2O1
i	2.5	-0.2	-0.8	-3.0	CO[C@@H]1CN(C)C(=O)c2ccc(NS(=O)(=O)c3cccc(F)c3)cc2OC[C@H](C)NC[C@H]1C
i	-7.2	7.8	0.9	-3.3	COc1ccc(-c2noc(-c3csc([C@@H]4C[C@H](O)[C@@H](CO)O4)n3)n2)cc1OC
i	-4.1	-6.8	-2.0	60.7*	C[C@@H]1CCCCO[C@@H](CN(C)Cc2ccc(Cl)c(Cl)c2)[C@H](C)CN([C@H](C)CO)C(=O)c2cc(N(C)C)ccc2O1
i	-0.3	4.1	0.4	0.6	CO[C@H]1CN(C)C(=O)c2ccc(NS(C)(=O)=O)cc2OC[C@@H](C)N(Cc2cccnc2)C[C@H]1C
i	2.7	10.8	7.0	2.8	COc1ccc(NC(=O)C(c2ccc(C(F)(F)F)cc2)n2c(=O)c(-c3ccco3)nc3ccccc32)cc1 (stereo not given)
i	-3.7	-15.6	1.5	0.8	COc1ccc(S(=O)(=O)N(C)C[C@H]2OCCCC[C@H](C)Oc3ccc(NS(C)(=O)=O)cc3C(=O)N([C@@H](C)CO)C[C@H]2C)cc1
i	-0.9	8.5	-1.2	0.3	CCNC(=O)C[C@@H]1CC[C@H](NC(=O)C2CC2)[C@@H](CO)O1
i	7.4	15.1	-1.9	-2.9	O=S1(=O)CCN(Cc2ccncc2)CC1
i	3.6	9.1	-5.0	1.3	CCC(=O)Nc1ccc2c(c1)C(=O)N(C)[C@@H]1CC[C@H](CC(=O)NCCN3CCCCC3)O[C@@H]1CO2
i	2.6	5.1	-0.1	-13.9	C/C=C/c1ccc([C@@H]2[C@@H](CO)N(C(=O)C3CC3)C23CN(C(=O)NC(C)C)C3)cc1
i	-53.5	-76.0	-16.6	-5.1	CCCCNC(=O)C1(C)CCCCN1Cc1ccc(OCc2ccccc2)cc1 (stereo not given)
i	-6.0	-5.5	1.0	1.8	CO[C@@H]1CN(C)C(=O)c2ccc(NC(=O)Nc3cccc(F)c3)cc2OC[C@H](C)N(C(C)=O)C[C@H]1C
i	-0.3	6.1	-2.4	-1.5	COc1ccccc1-c1ccc2c(c1)[C@@H]1[C@@H](CCN1C(=O)c1ccc3c(c1)OCO3)[C@H](CO)N2
i	-0.5	-7.0	2.7	-4.9	O=C(Nc1ccccc1F)N1CCCCN2[C@H](CO)[C@H](c3ccc(C#Cc4cccnc4)cc3)[C@@H]2C1
i	-2.5	0.3	3.7	-9.8	COc1cccc(-c2ccc3c(c2)O[C@H](CN(C)C(=O)c2ccccc2F)[C@H](C)CN([C@@H](C)CO)S3(=O)=O)c1
i	-3.2	0.5	0.5	-1.8	C[C@H](NC(=O)C[C@H]1C[C@@H]2c3cc(NC(=O)C4CCOCC4)ccc3O[C@@H]2[C@@H](CO)O1)c1ccccc1
i	3.2	-7.9	-0.1	5.9	COc1ccc(CN(C)C[C@@H]2OCCCC[C@@H](C)Oc3ccc(NC(=O)NC4CCCCC4)cc3C(=O)N([C@H](C)CO)C[C@H]2C)cc1
i	0.3	5.2	-1.3	-2.7	C[C@@H]1CCCCO[C@H](CN(C)S(=O)(=O)c2ccc(Cl)cc2)[C@H](C)CN([C@@H](C)CO)C(=O)c2cc(NS(=O)(=O)c3ccc(F)cc3)ccc2O1
i	-11.9	-10.6	-2.8	-2.0	Cc1cc(C)c(OCC(=O)OC(C)C(=O)NCc2ccccc2)c(C)c1 (stereo not given)
i	-34.0	-51.5	-5.6	1.1	Cc1noc(C)c1NC(=O)Nc1ccc2c(c1)C(=O)N([C@@H](C)CO)C[C@H](C)[C@H](CN(C)C(=O)Nc1ccc(C(F)(F)F)cc1)O2
i	-5.1	-16.6	14.0	0.8	C[C@H]1CCCCO[C@H](CN(C)Cc2ccc(Cl)c(Cl)c2)[C@@H](C)CN([C@@H](C)CO)C(=O)c2cc(NS(=O)(=O)c3ccccc3)ccc2O1
i	5.5	10.0	2.2	0.0	CO[C@H](CN(C)C(=O)c1cnccn1)[C@@H](C)CN([C@H](C)CO)S(=O)(=O)c1ccccc1
i	1.0	10.5	1.4	-2.8	CC(C)C#Cc1cnc2c(c1)C(=O)N([C@@H](C)CO)C[C@@H](C)[C@@H](CN(C)C(=O)c1cccnc1)O2
i	13.7	3.4	3.5	-1.2	Cc1ccc(S(=O)(=O)N2C[C@H]3n4c(=O)ccc(=O)n4C[C@H](OC(=O)Nc4c(C)noc4C)[C@@]3(O)C2)cc1
i	-2.5	-13.7	-3.0	0.8	OC(Cc1cccnc1)(c1ccccc1)c1ccccc1
i	9.0	2.7	2.6	10.0	CCOC(=O)C1=CCN(S(C)(=O)=O)C1c1ccc(Cl)cc1 (stereo not given)
i	-2.8	2.7	-0.6	-0.8	C[C@@H]1CN([C@@H](C)CO)C(=O)c2cc(NC(=O)c3ccncc3)ccc2O[C@@H]1CN(C)S(=O)(=O)c1ccccc1
i	3.0	0.9	0.0	-3.2	Cc1noc(C)c1S(=O)(=O)Nc1cccc2c1O[C@@H](CN(C)Cc1ccncc1)[C@@H](C)CN([C@H](C)CO)C2=O
i	4.6	-3.4	0.4	1.5	CC1(C(=O)NCc2ccccc2)CSCC(=O)N1CCCN1CCOCC1 (stereo not given)
i	15.8	14.1	21.6	1.0	Nc1ccc2c(S(=O)(=O)O)cccc2c1S(=O)(=O)O
i	2.3	6.9	-2.0	-1.2	COc1cccc(CNC(=O)[C@@H]2[C@@H](CO)[C@@H]3Cn4c(ccc(-c5cncnc5)c4=O)[C@H]2N3C(C)=O)c1
i	3.4	7.1	-3.1	0.6	COc1ccc(NC(=O)N2C[C@H](O)COC[C@H]3O[C@@H](CC(=O)N4CCOCC4)CC[C@@H]32)cc1
i	3.2	9.5	-2.7	-1.2	CCCNC(=O)C[C@H]1C[C@@H]2c3cc(NC(=O)CC4CC4)ccc3O[C@@H]2[C@@H](CO)O1
i	10.6	10.8	2.2	-2.9	COC(=O)c1ccc2nc(-c3cccc(Br)c3)c(Cc3cccc(F)c3)n2c1
i	-0.1	6.7	3.1	-5.2	COc1ccc(C)cc1-n1nnnc1SCC(=O)NC1CCCC1
i	-0.1	-4.5	1.7	-0.1	CO[C@@H]1CN(C)C(=O)c2cc(NC(=O)Nc3ccccc3F)ccc2OC[C@@H](C)N(CCC(F)(F)F)C[C@H]1C
i	-8.7	-15.7	-0.7	-0.6	CC1(C(=O)Nc2cnc3ccccc3c2)CCN1C(=O)CCc1ccccc1 (stereo not given)

Following part
FGF22 binding	rRNA inh HTS	rRNA inh HTS OD600	rRNA inh HTS RFP	MLL AF4-AF9 inh	Structure
i	5.8	2.1	0.3	0.7	COc1ccc(S(=O)(=O)Nc2ccc3c(c2)C(=O)N([C@@H](C)CO)C[C@@H](C)[C@H](CN(C)C(=O)Nc2ccc(F)cc2)O3)cc1
i	-4.3	6.7	1.7	6.3	CCN(CC)c1c(C)nc2ccc(C(=O)Nc3cc(-c4ccccc4)ccc3OC)cn12
i	3.6	3.2	-2.4	-0.5	COC(=O)C[C@@H]1C=C[C@H](NC(=O)Nc2ccc(C(F)(F)F)cc2)[C@@H](CO)O1
i	-0.8	0.8	1.9	-4.9	CCCNC(=O)c1cc(C2CCCCN2S(=O)(=O)c2ccccc2)on1 (stereo not given)
i	3.3	0.1	0.4	1.5	COc1cc(/C=C/C(=O)O)cc(S(=O)(=O)Nc2ccc(S(=O)(=O)N3CCCCC3)cc2)c1OC
i	-1.6	3.0	0.9	0.4	N#C[C@@H]1[C@H](c2ccccc2-c2ccccc2F)[C@H](CO)N1C(=O)C1CC1
i	7.4	9.7	-1.1	-25.4	CCOC(=O)N1CCN(C(=O)COC(=O)c2cccc(S(C)(=O)=O)c2)CC1
i	-3.8	-9.4	-2.5	0.6	COC(=O)C[C@@H]1CC[C@H]2[C@@H](COC[C@H](O)CN2C(=O)Nc2cccc(F)c2)O1
i	3.8	7.2	1.6	-0.7	COc1cc(CNC(=O)Nc2cccn3nc(COCCO)nc23)cc(OC)c1OC
i	-3.6	-1.8	-4.4	0.4	CC1=C2C3OC(=O)C(C)C3CCC2(C)C=C(Cl)C1=O (stereo not given)
i	i	/	/	-4.1	C[C@@H]1CCCCO[C@H](CN(C)CC2CCCCC2)[C@H](C)CN([C@H](C)CO)C(=O)c2cc(NC(=O)Nc3ccc(C(F)(F)F)cc3)ccc2O1
i	-0.4	-18.5	1.2	3.1	C[C@@H]1CN([C@@H](C)CO)S(=O)(=O)c2ccc(C#CC3CC3)cc2O[C@H]1CN(C)CC1CCCC1
i	0.7	-3.5	-0.1	-0.5	CC(=O)N(C)C[C@H]1Oc2cc(C3=CCCC3)ccc2S(=O)(=O)N([C@H](C)CO)C[C@H]1C
i	7.8	11.0	-4.6	-0.6	C[C@@H]1CN([C@H](C)CO)C(=O)c2cc(-c3cccnc3)cnc2O[C@@H]1CN(C)C(=O)c1ccccc1F
